Compound activity: PubChem, National Center for Advancing Translational Sciences (NCATS)
miR-21 FLuc – qHTS Assay for Modulators of miRNAs and/orActivators of miR-21. Potency, µM (titrated, usually from 38.3 µM), for the others: at the highest dose reporter change, positive = more light. 340,000 tested, under 10 active. HeLa miR-21 FLuc reporter, luciferase, 48 h; active = well fitted rising curve with a large enough effect; inconclusive = small, poorly fitted or top-dose-only effect; inactive = no such curve, though single readings can be large or run the other way;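 further: % of control where 0% means no effect; miR-21 action dims this reporter so a rising signal means less miR-21 action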
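Compounds were titrated across several concentrations (up to approximately 40 uM) and incubated 48 hours with HeLa miR-21-FLuc reporter cells (miR-21 target sequence downstream of FLuc, endogenous miR-21). Readout was firefly luciferase luminescence after lytic detection reagent.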
Rango-impB inh – qHTS Assay for Inhibitors of Rango (Ran-regulated importin-beta cargo) - Importin beta complex formation. Rango CFP/YFP FRET sensor + importin beta, 45 min. Potency, µM (highest dose often 92.2 µM), for the others: at the highest dose inhibition of complex formation. actives 0.031% (n = 340,000); active = rising FRET ratio curve, often small or poorly fitted; inconclusive = mostly compound fluorescence or quenching in the first reads; inactive = flat curves in all reads;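 further: potency means the concentration at half of the fitted maximal effect; 0% = DMSO wells and 100% = buffer wells lacking importin beta; nearly all actives have a fitted effect of over 15% in size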
Target sequence (Q14974 whole entry, looked up): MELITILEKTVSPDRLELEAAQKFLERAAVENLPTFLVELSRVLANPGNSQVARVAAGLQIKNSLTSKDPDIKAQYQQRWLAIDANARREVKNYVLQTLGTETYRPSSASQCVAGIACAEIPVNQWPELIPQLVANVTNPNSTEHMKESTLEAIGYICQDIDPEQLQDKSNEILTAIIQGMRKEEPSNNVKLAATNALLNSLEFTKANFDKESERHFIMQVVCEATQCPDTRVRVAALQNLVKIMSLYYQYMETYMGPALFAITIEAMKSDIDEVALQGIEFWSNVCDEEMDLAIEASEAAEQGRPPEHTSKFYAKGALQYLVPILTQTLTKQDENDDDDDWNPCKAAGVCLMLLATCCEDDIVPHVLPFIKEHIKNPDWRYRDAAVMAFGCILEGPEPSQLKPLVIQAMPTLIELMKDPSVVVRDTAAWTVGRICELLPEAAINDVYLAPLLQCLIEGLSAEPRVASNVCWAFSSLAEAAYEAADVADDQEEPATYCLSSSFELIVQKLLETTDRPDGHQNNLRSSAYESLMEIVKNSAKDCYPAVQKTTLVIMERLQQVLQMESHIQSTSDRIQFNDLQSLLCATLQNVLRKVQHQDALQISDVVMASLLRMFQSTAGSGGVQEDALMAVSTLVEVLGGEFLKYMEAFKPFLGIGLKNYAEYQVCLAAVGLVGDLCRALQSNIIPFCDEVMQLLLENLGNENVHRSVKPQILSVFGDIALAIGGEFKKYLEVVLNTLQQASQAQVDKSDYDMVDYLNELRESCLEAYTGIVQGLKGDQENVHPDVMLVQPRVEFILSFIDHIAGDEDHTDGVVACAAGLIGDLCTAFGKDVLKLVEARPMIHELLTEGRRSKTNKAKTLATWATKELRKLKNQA
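FRET biosensor Rango (snurportin 1 IBB between N-terminal EYFP and C-terminal Cerulean), 50 nM in PBS/1 mM DTT/0.02% Tween-20/0.1% BSA, preincubated 5 min RT with compound; 0.125 microM importin beta added, 45 min RT, CFP/YFP FRET ratio read.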
Rango dissoc inh – qHTS Assay for Inhibitors of RanGTP induced Rango (Ran-regulated importin-beta cargo) - Importin beta complex dissociation | Biochemical FRET Rango-importin beta, RanGTP-induced dissociation | Potency, µM (top dose mostly 46.1 µM), for the others: at the top dose activity change, negative = inhibition | Snurportin-1 (Homo sapiens) + GTP-binding nuclear protein Ran (Homo sapiens) + Importin … | actives 0.071% (n = 340,000) | AID 540253, 2011; active means falling FRET ratio curve, often poorly fitted, with flat reads before Ran was added; inconclusive means other falling curves, or compound fluorescence or quenching; inactive means flat or rising ratio curve;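 further: potency means the concentration at half of the fitted maximal effect; % of control where 0% means no effect; nearly all actives have a fitted effect of over 45% in size; -100% = wells without RanGTP and RCC1; the record marks most hits as doubtful in a second field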
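Rango (0.1 uM)–importin beta (0.25 uM) complex; RanGTP-RCC1 trigger; 45 min RT; CFP/YFP FRET read.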
GLA inh pH 4.5 – qHTS Assay for Inhibitors of Human alpha-Galactosidase at pH 4.5; Alpha-galactosidase A (Homo sapiens), P06280; purified enzyme, 4-MU-alpha-Gal fluorescence, pH 4.5; activity change, negative = inhibition, % at 105 µM; 230,000 tested, under 10 active; AID 1467, 2008; inconclusive = small, poorly fitted or top-dose-only inhibition, or a rising curve; inactive = flat fitted curve, though single readings scatter; no compound was filed as active;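 further: 0% = full activity with enzyme and -100% = basal without enzyme; dose as in the result columns while the protocol names 77 µM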
* marks the source's active call; other numbers are inactive results; ? = inconclusive; · = no result given; & = joins results of further samples. These rows are one share of the data (hit frequency here may not be typical).

item	SMILES	miR-21 FLuc	Rango-impB inh	Rango dissoc inh	GLA inh pH 4.5
1	O=C(NCCc1ccccc1)[C@@H]1CC=C[C@@H]2CCN(Cc3ccccc3)C(=O)[C@@H]21	·	1.5%	15%	·
2	COc1ccc(-c2nnc(SCC(=O)Oc3ccc(C)cc3)o2)cc1	6%	-1.7%	34%	1
3	O=c1cc(N2CCc3ccccc32)[nH]c(=O)n1-c1ccc(Cl)cc1	-12%	-0.4%	-2%	13
4	CS(=O)(=O)N1CCc2cc(C(=O)OCC(=O)c3ccccc3)ccc21	-38%	1.2%	-7%	-6
5	O=C(Nc1ccccc1N1CCOCC1)C1(c2ccc(Cl)cc2)CCC1	-1%	-2.4%	-4%	10
6	Cc1ccccc1N1CCN(S(=O)(=O)N(C)C)CC1	4%	-0.5%	17%	5
7	CC(C)(C)OC(=O)N1CCN(C(=O)Cn2cc(CCO)nn2)CC1	0%	0.4%	-12%	2
8	CCOC(=O)CCCNC(=O)CN1C(=O)NC(c2ccccc2)(c2ccccc2)C1=O	7%	0.7%	2%	·
9	CCN(CC)S(=O)(=O)c1ccc(C(=O)NC2=NCCS2)cc1	-2%	-1.4%	-5%	·
10	CCCCNc1nnc(Cc2ccc(Cl)cc2)c(=O)[nH]1	0%	0.4%	-3%	·
11	CN1CCC(=NNC(=O)C(=O)NC(C)(C)C)CC1	0%	1.6%	8%	11
12	O=C(NCc1ccc2c(c1)OCO2)C(c1ccco1)N(C(=O)c1csnn1)c1ccccc1 (stereo not given)	-1%	4.3%	18%	3
13	COc1ccccc1Cn1c(=O)[nH]c2cccnc21	1%	0.4%	24%	2
14	Cc1ccccc1OCCNC(=O)CNC(=O)c1ccccc1O	-9%	2.7%	1%	-2
15	O=C(CCNC(=O)N1CCn2c1nc1ccccc12)NCc1ccc(Cl)cc1	-3%	-3.3%	19%	·
16	CCc1cc(/C(Cc2csc(C)n2)=N/O)c(O)cc1O	13%	-1.0%	1%	4
17	Cc1cc(C)c(OCC(=O)Nc2nnc(-c3ccco3)o2)c(C)c1	2%	0.2%	8%	9
18	CC(=O)N1CCc2cc(S(=O)(=O)NC(C(=O)NCc3ccccc3)C(C)C)ccc21 (stereo not given)	0%	3.0%	4%	6
19	Cc1ccc(C(=O)OC(C)C(=O)NCc2ccc3c(c2)OCO3)cc1S(=O)(=O)N1CCOCC1 (stereo not given)	2%	-0.5%	6%	·
20	O=c1c2ccccc2nc2n1C(CSc1ccccc1)CS2 (stereo not given)	4%	-0.3%	-5%	-2
21	C=CCn1c(SCC(=O)c2ccc(CNC(C)=O)o2)nc2scc(C3CC3)c2c1=O	-11%	?	-22%	1
22	Cc1ccc(-c2nc3cnccn3c2Nc2ccc3c(c2)OCCO3)o1	-45%	?	?	-9
23	CSCC[C@H](NC(=O)N1C[C@H]2C[C@@H](C1)c1cccc(=O)n1C2)C(=O)Nc1ccc(NC(C)=O)cc1	-2%	-3.2%	13%	·
24	Cc1cc(NC(=O)c2ccc(Br)cc2)nc(C)n1	-21%	2.2%	-10%	4
25	CCNS(=O)(=O)c1ccc(NC(=O)c2ccc(Cn3cc([N+](=O)[O-])cn3)o2)cc1	-4%	3.4%	-1%	13
26	CC(C(=O)Nc1ccccc1)N(C)Cc1cccs1 (stereo not given)	-1%	-0.4%	10%	·
27	COc1cc(CN2CCCN(C)CC2)cc([N+](=O)[O-])c1O	2%	-0.1%	-2%	·
28	O=C(Nc1ccccc1-c1ccccc1)c1ccco1	-7%	-3.2%	-7%	3
29	COc1ccc(S(=O)(=O)C(C#N)c2nc3ccccc3nc2N2CCCC(C)C2)cc1 (stereo not given)	-8%	?	?	-2
30	COc1ccc(Nc2nc(-c3sc(N)nc3C)cs2)cc1	-35%	-2.0%	-20%	?
31	Cc1ccc(OCc2cc(C(=O)N(C)CCn3ccnc3C)no2)cc1C	·	-0.5%	-9%	·
32	CC(C)COc1cccc(C(=O)N2CCN(C(=O)c3ccco3)CC2)c1	·	-2.1%	14%	·
33	CCN1C[C@@H]2[C@@H]3C(=O)N(Cc4ccccc4)C(=O)[C@@H]3[C@](Cc3ccccc3)(C1=O)N2C(=O)c1ccc(C(C)(C)C)cc1	·	-1.0%	-13%	·
34	CCCn1nnc(NC(=S)NC(=O)C(C)(C)C)n1	-19%	3.8%	-19%	2
35	CCCCn1c(SCC(=O)OCC)nnc1-c1ccoc1C	-1%	3.1%	3%	5
36	COC(=O)c1ccc(OC(C)C(=O)c2ccc(C)cc2)cc1 (stereo not given)	-14%	-0.7%	4%	-5
37	CCN(CC)c1ccc(NC(=O)COc2ccc(C)cc2)cc1	-18%	-4.4%	4%	0
38	CN1CCC(N(C)C(=O)CCc2nc3ccccc3c(=O)[nH]2)CC1	-1%	-1.5%	-29%	-10
39	COCCCn1c(SCC(=O)N2CCOCC2)nc2ccccc2c1=O	5%	-0.6%	-12%	·
40	CCOC(=O)c1sc(=S)n(C)c1NC(=O)c1cccc(Br)c1	19%	0.1%	1%	0
41	O=C(CCc1ccccc1)NCc1cccnc1	-7%	-1.5%	18%	15
42	COc1ccccc1Cn1c(-c2ccco2)nc2nc3ccccc3nc21	·	?	2%	·
43	Cc1onc(-c2ccccc2)c1C(=O)NCc1ccc(F)cc1	·	4.1%	0%	·
44	CCCCN(C)CCNC(=O)C1CCN(S(=O)(=O)c2cccc3nsnc23)CC1	-2%	-3.7%	9%	·
45	CCOC(=O)c1ccc(N2C(=O)C3ON(c4ccccc4)C(c4ccco4)C3C2=O)cc1 (stereo not given)	-1%	2.8%	9%	4

Ordered by molar mass (smallest number first): some entries from above
item	SMILES	miR-21 FLuc	Rango-impB inh	Rango dissoc inh	GLA inh pH 4.5
34	CCCn1nnc(NC(=S)NC(=O)C(C)(C)C)n1	-19%	3.8%	-19%	2
43	Cc1onc(-c2ccccc2)c1C(=O)NCc1ccc(F)cc1	·	4.1%	0%	·
33	CCN1C[C@@H]2[C@@H]3C(=O)N(Cc4ccccc4)C(=O)[C@@H]3[C@](Cc3ccccc3)(C1=O)N2C(=O)c1ccc(C(C)(C)C)cc1	·	-1.0%	-13%	·

(further entries)
item	SMILES	miR-21 FLuc	Rango-impB inh	Rango dissoc inh	GLA inh pH 4.5
46	CCOc1ccc(C(=O)NCC(=O)NCCSc2ccc(Br)cc2)cc1OCC	·	4.3%	3%	·
47	NC(=O)c1ccccc1	-1%	-0.7%	0%	-8&3
48	COc1cc(S(=O)(=O)NCC2OCCc3ccccc32)ccc1-n1cnnn1 (stereo not given)	-2%	9.8%	-1%	-2
49	COC(=O)c1cc(NC(=O)C2CC(=O)NC(=NCc3ccc(OC)cc3)S2)cc(C(=O)OC)c1 (stereo not given)	1%	3.8%	-4%	1
50	CCC1Nc2ncnc(N3CCCCC3)c2N(Cc2ccc(OC)cc2)C1=O (stereo not given)	·	1.3%	-1%	·
51	CCOC(=O)CSc1nc(C2CC2)cc(-c2ccc(F)cc2)c1C#N	-13%	-1.2%	-8%	6
52	CCOc1cc(C2Nc3ccccc3C(=O)N2c2ccccc2)ccc1O (stereo not given)	-29%	0.9%	-10%	5
53	Cc1ccc(C)c(NC(=O)CCN2CCc3ccccc3C2)c1	-4%	-0.5%	6%	4
54	COc1ccccc1Oc1ccc(S(=O)(=O)NCc2ccccn2)cc1	7%	2.6%	0%	-6
55	Cc1ccc(SCCC(=O)NC(C)(C)C)cc1	-26%	1.8%	-9%	6
56	Cc1cc(C)cc(NC(=O)N2CCC(c3nc4ccccc4o3)CC2)c1	-3%	0.0%	1%	-7
57	COc1ccc(Nc2nnc(SCc3cc([N+](=O)[O-])cc4c3OCOC4)s2)cc1	0%	-1.7%	-5%	-19
58	O=C(NCC(c1cccs1)N1CCOCC1)c1cc([N+](=O)[O-])ccc1Cl (stereo not given)	4%	3.1%	30%	-1
59	O=C(NCCN1CCOCC1)c1cccc(S(=O)(=O)Nc2ccc(F)cc2)c1	·	-0.2%	-15%	·
60	CCOc1ccc(C(=O)N(Cc2ccc(OC)cc2)Cc2cc3cc(OC)ccc3[nH]c2=O)cc1	-3%	1.4%	-8%	-27
61	CCC(C)N(C(=O)COC(=O)CCc1c[nH]c2ccccc12)C1CCS(=O)(=O)C1 (stereo not given)	-1%	-1.0%	-4%	0
62	CCc1nnc(NC(=O)CSc2ccc(-c3cccs3)nn2)s1	-21%	-1.2%	2%	-2
63	CCOC(=O)c1cnc2c(C#N)cnn2c1N	5%	-1.0%	5%	5
64	COc1ccc(S(=O)(=O)NCC2CCC(C(=O)NCCC(C)C)CC2)cc1 (stereo not given)	-5%	0.2%	0%	0
65	Cc1cccc(N(C)S(=O)(=O)c2ccc(-c3cc(C)no3)s2)c1	?	-0.6%	1%	·
66	N#Cc1cc2c(nc1SC1CC(=O)N(c3ccccc3)C1=O)CCC2 (stereo not given)	-43%	-0.6%	-11%	3
67	CCC(=O)C1=C(O)C(c2cccc(Oc3ccccc3)c2)CCC1=O (stereo not given)	20%	0.3%	-11%	6
68	COCCNC(=S)NNC(=O)CSCc1ccc(Cl)cc1Cl	-4%	0.3%	-16%	0
69	CCOc1ccc(/C=N/NC(=O)c2cc(-c3cccn3C)n[nH]2)cc1	8%	1.0%	-18%	-29
70	O=C(NCCCO)C(=O)Nc1cc2c3c(c1)CCN3C(=O)CC2	1%	-1.6%	-5%	·
71	COc1cccc(CNC(=O)C(=O)NCC2CCCO2)c1 (stereo not given)	-10%	-4.8%	-21%	3
72	NS(=O)(=O)c1ccc(CCNC(=O)/C=C/c2cccc([N+](=O)[O-])c2)cc1	-1%	3.2%	-4%	4
73	O=C1N2CCCc3cccc(c32)C12Nc1ccccc1S2 (stereo not given)	-5%	0.1%	2%	-7
74	COc1ccc(OC)c(NC(=O)CSc2nc(C)cs2)c1	-5%	-3.6%	17%	-1
75	Cn1c(=O)[nH]c2c(c(C(=O)O)nn2C)c1=O	·	2.5%	15%	·
76	O=C(CCC1CCCC1)NCCS(=O)(=O)N1CCN(c2ccccc2F)CC1	·	-2.7%	-1%	·
77	CCSc1nc(C)c(C)c(=O)[nH]1	0%	-0.5%	-13%	3
78	COCCCN(C(=O)C1CCCCC1)c1c(N)n(Cc2ccccc2)c(=O)[nH]c1=O	·	-3.8%	14%	·
79	COCc1cc(=O)[nH]c(SCCS(=O)(=O)c2ccc(C)cc2)n1	2%	1.4%	1%	-14
80	COc1cc(C(=O)Nc2ccc(C(N)=O)cc2)c([N+](=O)[O-])cc1OC	1%	1.6%	2%	10
81	CC1CN(C(=O)CCC(=O)NCc2ccccn2)c2ccccc2O1 (stereo not given)	2%	1.4%	14%	·
82	COC(=O)C1=C(CS(=O)(=O)c2ccc(OC)cc2)NC(=O)NC1c1ccccc1 (stereo not given)	1%	2.3%	3%	·
83	COc1ccc(Cn2c(-c3ccc(Br)cc3)c[n+]3ccccc23)cc1	-2%	3.4%	-3%	-2
84	CSc1nnc2c3ccccc3c3ccccc3c2n1	0%	0.0%	-3%	-20
85	CCc1ccccc1N1CN(Cc2ccco2)CNC1=S	-1%	0.3%	-13%	5
86	COc1ccccc1CNC(=O)COc1ccc([N+](=O)[O-])cc1	-4%	-0.5%	2%	2
87	Cc1n[nH]c(=O)c2c1nnn2Cc1ccccc1Cl	-1%	0.9%	-8%	·
88	CCCOc1cccc(-c2nn(-c3ccccc3)cc2/C=C(\C#N)C(=O)NCCCn2ccnc2)c1	20%	?	-11%	-13
89	COc1ccccc1N(CC(=O)NC(C)(C)C)C(=O)CCC(=O)Nc1nccs1	3%	4.5%	7%	·
90	CCOc1ccccc1NC(=O)CSc1nnc(-c2ccccc2Cl)n1Cc1ccco1	-6%	-1.3%	4%	-3
91	CCOC(=O)C1=C(CCc2ccccc2)NC(=O)NC1c1ccc(Br)cc1 (stereo not given)	6%	-0.5%	1%	·
